Screening data (PubChem)
Calb FLC: C. albicans growth modulation with fluconazole; 300,000 tested, 0.57% active; AID 1979; growth inhibition, % (test concentration not listed); C. albicans CaCi-2 (fluconazole-resistant clinical isolate) + fluconazole, Alamar Blue growth, 48 h;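 active = most replicates above 75%; inconclusive = exactly half above 75%; inactive = most below 75%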;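 note: all wells also contain fluconazole at 8 µg/ml as a sub-toxic cotreatment; 0% = median of DMSO wells and 100% = median of geldanamycin control wells; wells of about 8 µL received 7.5 nL stock; the first replicate is given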
LANA-H2B inh: blocks KSHV LANA binding to histone H2A/H2B. Q9QR71. cell-free LANA-H2A/H2B peptide, fluorescence polarization. inhibition, % (test concentration not listed). 320,000 tested, 0.6% active. AID 2629; in the data active = inhibition mostly above about 10%, no sharp cut-off; inactive = mostly below about 6.7%;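 note: stock transfer was 7.5 nL into about 10 µL; 0% = median of vehicle wells and 100% = median of positive control wells; one replicate is shown; the record names a cut of 25% in any replicate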
Target sequence (Q9QR71 whole entry, looked up): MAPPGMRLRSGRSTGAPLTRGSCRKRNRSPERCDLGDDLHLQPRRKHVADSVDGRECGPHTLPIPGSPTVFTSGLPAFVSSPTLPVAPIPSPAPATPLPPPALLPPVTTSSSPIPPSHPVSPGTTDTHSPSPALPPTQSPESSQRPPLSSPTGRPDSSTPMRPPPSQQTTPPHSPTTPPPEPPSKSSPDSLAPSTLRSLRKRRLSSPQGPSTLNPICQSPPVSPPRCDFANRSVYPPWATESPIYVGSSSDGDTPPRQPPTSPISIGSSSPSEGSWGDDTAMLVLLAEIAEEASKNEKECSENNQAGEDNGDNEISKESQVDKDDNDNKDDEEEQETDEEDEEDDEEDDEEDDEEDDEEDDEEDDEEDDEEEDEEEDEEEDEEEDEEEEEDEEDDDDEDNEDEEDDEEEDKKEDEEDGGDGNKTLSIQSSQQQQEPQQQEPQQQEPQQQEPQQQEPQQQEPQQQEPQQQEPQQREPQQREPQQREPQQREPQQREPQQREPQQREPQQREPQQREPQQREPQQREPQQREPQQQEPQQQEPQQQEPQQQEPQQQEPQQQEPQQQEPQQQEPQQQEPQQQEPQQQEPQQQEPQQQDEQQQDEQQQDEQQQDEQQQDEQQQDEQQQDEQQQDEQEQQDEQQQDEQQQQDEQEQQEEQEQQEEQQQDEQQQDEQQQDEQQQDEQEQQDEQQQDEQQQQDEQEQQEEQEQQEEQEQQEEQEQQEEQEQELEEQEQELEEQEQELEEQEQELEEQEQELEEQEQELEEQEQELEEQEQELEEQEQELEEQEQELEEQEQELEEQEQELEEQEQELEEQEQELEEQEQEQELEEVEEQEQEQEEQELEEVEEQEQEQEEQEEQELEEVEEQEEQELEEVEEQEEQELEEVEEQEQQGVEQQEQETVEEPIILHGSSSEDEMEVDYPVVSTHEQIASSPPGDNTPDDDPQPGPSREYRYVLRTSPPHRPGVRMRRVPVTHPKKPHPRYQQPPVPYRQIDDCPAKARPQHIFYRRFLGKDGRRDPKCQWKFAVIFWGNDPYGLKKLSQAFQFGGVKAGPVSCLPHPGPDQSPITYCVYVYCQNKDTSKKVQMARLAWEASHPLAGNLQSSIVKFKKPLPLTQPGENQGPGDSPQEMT
A1 inh: inhibitors of the anti-apoptotic protein A1, read as caspase activation; MEF A1-2A-BIM cells, Caspase-Glo 3/7 luminescence, 3 h; percent of clofoctol response, vehicle zero; caspase activation, % (no concentration beside the values); 330,000 tested, 0.066% active; AID 2462;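 active = over half of replicate activation scores above 10%, or exactly half above 10 with the replicate mean above 10; inconclusive = replicate mean below 10 yet half the replicates above 10; inactive = over half of replicates below 10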;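 note: wells of about 30 µL received 50 nL stock; many hits fall short of the cut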
Beta apoptosis: beta cell apoptosis inhibition. INS-1E cytokine-induced death, ATP luminescence, 48 h; percent of positive-control rescue, neutral wells zero. protection from apoptosis, % (test concentration not listed). 300,000 tested, 0.8% active. AID 435005;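 active = all replicates at 75% or more, or half of them and the mean; inconclusive = half reach 75% but not the mean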;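 note: 0% = cytokine-treated negative control wells and 100% = positive control rescue; higher means more ATP so stronger rescue from cytokine killing; wells of about 40 µL received 100 nL stock; the first replicate is given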
T cruzi repl: blocks replication of Trypanosoma cruzi; T. cruzi beta-gal in NIH3T3, luminescence, 90 h; inhibition, % (concentration not given with the values); 300,000 tested, 1.4% active;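 active = mean inhibition across valid replicates above about 55%, limit read from the data; inconclusive = mean below that limit but half or more replicates reach it; inactive = mean below it, under half of replicates reach it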;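 note: signal also drops with host cell toxicity which is not excluded here; 0% = plate median of DMSO wells and 100% = zero luminescence signal; higher percent means less beta-gal luminescence so fewer parasites; stock transfer was 50 nL into about 50 µL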
Beta2AR agonist: human beta-2 adrenergic receptor agonism by FAP. Am2.2-beta2AR cells, FAP receptor internalization, flow cytometry; reference of the scale not given here. response, % (concentration not given with the values). AID 504454. P07550. 340,000 tested, 0.43% active;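 active = response above a set limit, near 3 SD of response in nonfluorescent compounds, cut at about 42% in these data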;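 note: stock transfer was 100 nL into about 11 µL; a reference agonist was the positive control; negative values mostly stem from fluorescent compounds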
RanGTP-Impb inh: inhibitors of RanGTP-importin-beta interaction, primary screen, biochemical, FRET, CFP-Ran, YFP-importin-beta, homogeneous; cell-free CFP-Ran/YFP-importin-beta FRET ratio; inhibition, % (concentration not given with the values); AID 2216; 300,000 tested, 1.1% active;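 active = most replicates above 15%; inconclusive = exactly half above 15%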;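 note: 0% = DMSO wells and 100% = Ran loaded with GDP instead of GTP; wells of about 40 µL received 100 nL stock; the first replicate is given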
UCH37 DUB inh: blocks the human deubiquitinase UCH37. purified proteasome/UCH37, Ub-AMC cleavage fluorescence. Q9Y5K5. 330,000 tested, 0.33% active. inhibition, % (concentration not given with the values);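 active = mean of two replicates above 20%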;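 note: 0% = compound-free wells with enzyme and 100% = wells lacking proteasome; stock transfer was 100 nL into about 20 µL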
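System: Proteasome-associated human UCH37 deubiquitinase; Input: 0.15 nM proteasome in added enzyme buffer; Also added: Ub-AMC substrate from 1 µM stock; Incubation: 30 min compound-proteasome preincubation then 25 min substrate reaction, room temperature; Detection: fluorescence, ex 355 nm, em 460 nm; Read-out: % inhibition of Ub-AMC cleavage fluorescence; Benchmarks: no-proteasome and no-compound wells.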
* hit, by the source's call; ? = inconclusive; . = no result given. Rows were taken by chance; 4.3% or so of the library scored in one or more.

SMILES	Calb FLC	LANA-H2B inh	A1 inh	Beta apoptosis	T cruzi repl	Beta2AR agonist	RanGTP-Impb inh	UCH37 DUB inh
COc1ccc(/C=C(\NC(=O)c2ccc(Cl)cc2)C(=O)NCC2CCCO2)cc1OC (stereo not given)	0	-2.7	0.2	-2	-7	1	4.3	7.7
CCc1cc(C(=O)N(Cc2ccccc2)c2c(N)n(CCOC)c(=O)[nH]c2=O)sc1C	-14	1.4	0.5	.	-5	-1	-2.1	3.5
Cc1ccc(NC(=O)NC(=O)CSc2nnc(-c3ccc(Cl)cc3Cl)n2N)c(C)c1	0	-0.5	-3.2	-8	-6	-1	6.5	2.2
C/C(=N\O)C(=O)NCCCNCCCN(C)C	2	0.1	-0.3	0	-6	-2	-3.2	.
CC1CCN(C(=O)CN(Cc2ccc(F)cc2)S(C)(=O)=O)CC1	0	0.7	0.4	.	-5	-6	0.9	1.8
COc1ccc(C)cc1NC(=O)c1nn(-c2ccccc2)cc1OC	7	-0.6	-0.4	15	12	20	0.2	-6.8
S=C(Nc1ccc2snnc2c1)N1CCN(c2ccccn2)CC1	10	-1.0	-0.1	0	-22	-4	-0.4	6.1
CC(=O)NCCn1c(SCC(=O)Nc2ccc(C)cc2)nc2ccccc2c1=O	2	2.2	-0.1	2	8	0	-3.7	2.8
CC(=O)Nc1ccc(S(=O)(=O)N2CCCCC2c2cccnc2)cc1 (stereo not given)	-21	-2.8	-0.1	-8	-13	-8	-5.3	4.2
O=C(/C=C/c1ccccc1)N(Cc1ccc(Cl)cc1)C1CCS(=O)(=O)C1 (stereo not given)	4	2.7	0.5	.	-2	-9	0.4	3.7
CCOC(=O)c1[nH]c2ccc(OC)cc2c1C	-28	-0.5	-0.1	-9	7	-8	-1.4	-13
CCOc1cc(C(=O)N(C)CC(=O)Nc2cccc(F)c2)ccc1OCC(=O)N1CCCCC1	-3	4.3	-0.9	0	1	13	-1.1	5.2
CCOc1ccccc1NC(=O)Cn1c(-c2ccc(Cl)cc2)noc1=O	6	0.4	0.9	8	-6	1	6.9	3.4
Cc1cccc2c1Sc1ccc(Cl)cc1CC2N1CCNCC1 (stereo not given)	67	-3.0	0.7	.	63*	41	2.3	13
CCNC(=O)N1CCCC(C(=O)c2ccc3cc(OC)ccc3c2)C1 (stereo not given)	16	1.4	-0.2	2	10	-37	2.4	-458
COc1ccc(N(C(=O)c2snc(C(N)=O)c2N)C(C(=O)NC2CCCCC2)c2ccc(C)o2)cc1 (stereo not given)	42	4.0	1.0	8	21	5	0.0	-44
CCN(CC)C(=S)Nc1ccc(OC)cc1	0	0.7	1.0	.	0	-1	-1.5	5.3
C1CCCN(c2nc3nonc3nc2N2CCCCCC2)CC1	10	-0.2	-0.3	-4	5	9	-1.0	6.5
CCOC(=O)C(C(=O)NCc1cccc(OC)c1)c1ncc(C(F)(F)F)cc1Cl (stereo not given)	-3	0.2	-0.2	-1	9	-3	29	1.8
CCN(CC)c1ccc2nc3ccccc3[n+](CC)c2c1	90*	0.9	-0.8	99*	53	4	9.1	.
NC(=O)CC(NC(=O)Cc1ccc(Br)cc1)c1ccc(NC2CCN(Cc3ccccc3)CC2)c([N+](=O)[O-])c1 (stereo not given)	13	1.5	1.0	1	9	3	2.0	4.4
Cc1ccc2nc(-c3ccccn3)oc2c1	-4	4.7	-13	22	0	-9	0.3	-73
O=C(N/N=C/c1c(O)n(-c2ccccc2Cl)c(=O)c2ccccc12)c1cccnc1	?	.	.	.	13	16	2.5	-5.5
COc1cc(Br)c(C(C)NC(=O)c2ccc(C)cc2)cc1OC (stereo not given)	-6	-1.8	-0.2	-1	5	-1	?	-1.5
O=S(=O)(NCc1ccccc1Cl)c1cccs1	-26	-0.5	0.4	-1	2	4	-1.3	1.3
CC(C)c1ccc(C(C(=O)NC(C)(C)C)N(C(=O)CNC(=O)c2ccco2)c2cccnc2)cc1 (stereo not given)	-37	1.5	0.8	-9	-9	-1	1.0	1.6
COc1cc(OC)c2c(O)c3c(c(-c4c5c(c(O)c6c(OC)cc(OC)cc46)CO[C@@H](C)[C@H]5O)c2c1)[C@H](O)[C@H](C)OC3	27	9.8	-0.7	-4	-14	11	?	0.9
Cc1ccc(C)c(NC(=O)CN(C)C(=O)c2ccccc2Cc2ccccc2)c1	5	0.4	-0.4	-5	-9	1	?	2.8
Cc1nc2ccccc2c(=O)n1NC(=O)COc1ccccc1	0	2.1	0.5	4	-2	1	-4.8	3.9
CCOC(=O)C1CCCN(C(=O)Cc2c(C(=O)O)[nH]c3ccccc23)C1 (stereo not given)	-3	-0.7	0.3	2	-11	2	-2.4	2.0
COc1ccccc1-c1c(C(F)(F)F)oc2cc(OC(=O)c3ccc([N+](=O)[O-])cc3)ccc2c1=O	21	1.2	1.4	.	10	1	-0.6	1.1
CC(=O)Nc1ccc(NC(=O)c2oc3cc(C)c(C)cc3c2C)cc1	.	4.1	0.4	2	.	10	.	-84
CC(C)C(=O)Nc1ccc2c(c1)nc(CCN1CCN(c3ccccc3)CC1)n2C	0	3.0	-0.1	0	-7	-12	0.1	5.5
Cc1cccc(C(=O)Nc2sc(C(=O)N3CCCC3)c(C)c2C#N)c1	28	-5.3	-0.6	2	1	2	5.2	1.6
Cc1c(NC(=O)c2cnn3cccnc23)c(=O)n(-c2ccccc2)n1C	-4	-3.3	-0.3	-8	-9	-5	-0.4	4.9
CCCCCCc1ccc(N2C[C@H](Cc3ccccc3)[C@@H](CC(=O)Nc3ccccc3)C2=O)cc1	-8	-7.5	-0.9	104*	13	2	3.1	4.2
CCN(CC)C(=O)CSc1nc2ncccc2[nH]1	-1	2.7	0.3	-7	-12	-9	-4.0	2.5
COc1cc(S(=O)(=O)n2ccc(C)n2)ccc1Cl	-8	0.9	0.1	-6	-8	-7	0.5	.
CCc1cccc(NS(=O)(=O)c2ccc(-n3cccn3)cc2)c1	-6	0.1	-1.3	1	0	.	1.7	1.9
CCCNC(=O)Cn1c(=O)oc2cc(S(=O)(=O)N3CC(C)CC(C)C3)ccc21 (stereo not given)	9	-2.8	-1.2	-1	-4	-1	2.1	2.1
Cc1cc2n(n1)C(c1ccsc1)Nc1ccccc1-2 (stereo not given)	2	2.9	-1.6	-2	8	2	4.4	-22
Cn1ncc(Cl)c1C(=O)NC1C2CC3CC(C2)CC1C3 (stereo not given)	16	6.8	0.9	-6	12	-5	-1.3	5.7
COc1ccc(-c2[nH]ncc2/C=N\NC(=O)c2ccc(C(C)(C)C)cc2)cc1OC	14	4.3	-0.3	-4	-1	-5	?	.
c1cncc(CNc2ncn[nH]2)c1	-1	0.9	0.0	-5	18	-5	1.6	4.5
CC(=O)c1ccccc1OCCCOc1cccc2cccnc12	1	-3.2	0.6	-4	-6	-5	-3.6	-0.3
COc1ccc(/C=C(/C#N)C(=O)Nc2cccc(C)c2C)cc1C(=O)O	3	-4.8	0.1	0	8	8	4.1	3.4
Cc1nnc(NCCN2CCOCC2)[nH]c1=O	5	-0.5	0.2	-4	-12	-1	-1.4	0.0
O=C1CC(c2ccccc2)Sc2nc3ccccc3n21 (stereo not given)	-1	-1.8	-2.0	2	-7	8	?	4.3
CCOC(=O)c1c(C)[nH]c(C(=O)OCC(=O)N2c3ccccc3CC2C)c1C (stereo not given)	-24	-2.4	-0.8	1	15	9	3.1	1.5
O=C1c2cccc([N+](=O)[O-])c2C(=O)N1C1CCCCC1	-2	-5.7	0.2	-5	-3	-6	6.6	2.1

Some values from above.
COc1cc(Br)c(C(C)NC(=O)c2ccc(C)cc2)cc1OC (stereo not given) in Beta apoptosis is listed with -1
CCCNC(=O)Cn1c(=O)oc2cc(S(=O)(=O)N3CC(C)CC(C)C3)ccc21 (stereo not given) in Beta apoptosis is listed with -1
O=C(N/N=C/c1c(O)n(-c2ccccc2Cl)c(=O)c2ccccc12)c1cccnc1 in UCH37 DUB inh is listed with -5.5
CCN(CC)C(=S)Nc1ccc(OC)cc1 in UCH37 DUB inh is listed with 5.3

Additional results
SMILES	Calb FLC	LANA-H2B inh	A1 inh	Beta apoptosis	T cruzi repl	Beta2AR agonist	RanGTP-Impb inh	UCH37 DUB inh
Cc1cccc(C(=O)NNC(=O)CSc2nnc(C3CC3)n2C)c1	4	2.9	-0.1	0	-27	6	0.0	3.9
O=C(Oc1ccc(-c2cnc3ccccc3n2)cc1)c1ccc(Cl)c([N+](=O)[O-])c1	-16	0.2	0.4	-8	3	-4	-1.5	3.2
O=C(CN1CCN(S(=O)(=O)c2ccc(Br)cc2)CC1)N/N=C/c1ccco1	10	8.0	1.2	0	-16	9	3.8	.
CC(CN1CCCC1)OC(=O)c1ccc(F)cc1 (stereo not given)	10	-0.4	0.2	.	-7	-6	-1.4	1.2
C=CCc1c(OC)ccc2c1c(S(=O)(=O)c1ccc(C)cc1)cn2COC	10	-4.1	-0.5	.	25	13	-3.8	2.7
CCCCOc1ccc(/C=c2\sc3ncnn3c2=O)cc1	2	3.3	-0.6	-7	5	5	0.5	.
COc1cc(Cl)c(S(=O)(=O)NCCCN2CCOCC2)cc1Cl	-1	5.7	1.0	2	0	-7	-0.6	-1.3
Cc1ccc(C(=O)Nc2nnc(NC(=S)Nc3ccccc3)s2)cc1	8	3.5	0.5	9	-5	11	0.1	0.8
CCC(c1nnc(SCC(=O)Nc2ccc(NC(C)=O)cc2)n1Cc1ccccc1)N(C)C (stereo not given)	-1	-7.7	0.5	.	-9	-9	?	1.7
Cc1ccccc1NC(=S)Nc1ccccc1	-3	2.0	0.3	-2	-7	4	-1.2	5.1
CCCCC(=O)Nc1nc(C)c(-c2csc(Nc3ccccc3OC)n2)s1	-5	1.6	0.4	4	-4	7	0.7	-1.6
COc1ccc(CCNS(=O)(=O)c2ccc(OC)cc2)cc1	-8	-1.1	1.5	4	-13	-6	-0.2	4.2
CS(=O)(=O)N1CCCC(C(=O)NCc2ccc(F)cc2Cl)C1 (stereo not given)	-3	-2.6	-0.1	-5	-21	8	2.5	5.2
O=C(O)C1C2C=CC(C2)C1C(=O)NC(c1ccccc1)c1ccccc1 (stereo not given)	-13	3.9	-0.2	-3	11	-4	-1.4	0.9
Cc1ccc(NC(=O)Nc2ccc3c(c2)N(C)C(=O)CS3)cc1C	5	1.6	0.5	.	10	4	-0.1	6.5

Random excerpt: 2 records from the list, in no set order.
SMILES	Calb FLC	LANA-H2B inh	A1 inh	Beta apoptosis	T cruzi repl	Beta2AR agonist	RanGTP-Impb inh	UCH37 DUB inh
O=C(Oc1ccc(-c2cnc3ccccc3n2)cc1)c1ccc(Cl)c([N+](=O)[O-])c1	-16	0.2	0.4	-8	3	-4	-1.5	3.2
COc1cc(Cl)c(S(=O)(=O)NCCCN2CCOCC2)cc1Cl	-1	5.7	1.0	2	0	-7	-0.6	-1.3
